# Screening results as filed in PubChem BioAssay.
# NS1 inh: qHTS Assay for Inhibitors of Influenza NS1 Protein Function. S. cerevisiae slowed by influenza A NS1, growth recovery by OD600. Potency, µM (titrated, usually from 46.1 µM), without a hit: at the top dose activity, positive = more growth. 270,000 tested, 0.4% active. AID 2326, 2010; further: actives are rising curves; nearly all actives have a fitted effect of over 50% in size
#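 Read-out: OD600 growth recovery of NS1-expressing budding yeast. Cells grown overnight at 30C in -URA glucose medium, washed, resuspended and diluted 1:100 in 2% galactose assay medium, pH 6.0. Same strain lacking NS1 served as positive control.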
# 2A StopGo: High Throughput Screening for Foot and Mouth Disease Virus Antivirals; human cells with a luciferase reporter of 2A StopGo recoding; control for the full effect not named in the record; Potency, µM (series often up to 57.9 µM), without a hit: top-dose signal change, negative = less light; 410,000 tested, 1.2% active; AID 1159524, 2015; active = well fitted falling curve with a large enough effect; inconclusive = small, poorly fitted or top-dose-only effect; inactive = no such curve, though single readings can be large or run the other way; tested in HEK293T cells; further: on the % scale 0 is the no-effect control and ±100 the full control effect; nearly all actives have a fitted effect of over 45% in size; luciferase light after 4 h
# Lassa entry inh: qHTS for Inhibitors of binding or entry into cells for Lassa Virus; Lassa virus pseudotype entry inhibition, cell reporter; control for the full effect not named in the record; Potency, µM (doses to about 37.9 µM), inactives show at the top dose activity change, negative = inhibition, usual class: inhibitors; 300,000 tested, 1.2% active; active means well fitted inhibition curve with a large enough effect; inconclusive means small, poorly fitted or top-dose-only effect, or effect the other way; inactive means flat fitted curve, though single readings scatter; tested in HEK293 cells; further: on the % scale 0 is the no-effect control and ±100 the full control effect; nearly all actives have a fitted effect of over 50% in size; luciferase read-out
# SARS PLpro yeast: qHTS of Yeast-based Assay for SARS-CoV PLP; S. cerevisiae expressing SARS-CoV PLpro, growth rescue; control for the full effect not named in the record; Potency, µM (top dose mostly 32.9 µM), for the others: at the top dose activity, positive = growth rescue; 330,000 tested, 0.19% active; further: 0% is about no effect; nearly all actives have a fitted effect of over 55% in size; growth read by luminescence after 48 h
# Cruzain inh Det: qHTS Assay for Promiscuous and Specific Inhibitors of Cruzain (with detergent); purified cruzain, Z-FR-AMC fluorescence, 0.01% Triton; Cruzipain (Trypanosoma cruzi), P25779; 200,000 tested, 0.43% active; Potency, µM, for the others: max response, negative = inhibition, usual class: inhibitors; active means well fitted curve in the direction sought with a large enough effect; inconclusive means small, poorly fitted or top-dose-only effect, or another doubt; inactive means no such curve, though single readings can be large; an effect the other way counts as inactive or inconclusive;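 further: plate controls were neutral wells for no effect and buffer without enzyme for full effect; nearly all actives have a fitted effect of over 40% in size; top concentration of the series not given in the record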
# Target sequence (P25779 123-467 limits assumed): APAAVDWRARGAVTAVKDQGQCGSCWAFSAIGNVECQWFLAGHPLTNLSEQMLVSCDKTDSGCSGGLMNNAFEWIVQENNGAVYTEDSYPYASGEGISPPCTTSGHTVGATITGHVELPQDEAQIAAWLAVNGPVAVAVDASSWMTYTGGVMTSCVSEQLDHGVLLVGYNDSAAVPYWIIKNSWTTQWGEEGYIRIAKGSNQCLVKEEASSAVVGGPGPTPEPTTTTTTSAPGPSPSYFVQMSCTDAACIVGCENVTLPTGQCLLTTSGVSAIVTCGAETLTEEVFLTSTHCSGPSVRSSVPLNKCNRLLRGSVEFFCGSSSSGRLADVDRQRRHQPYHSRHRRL
#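 Compounds were screened in titration against cruzain (1.5 nM) with 0.01% Triton X-100 to counter colloidal aggregation. Activity was the AMC fluorescence increase over 60 s after adding 2 uM Z-FR-AMC at pH 5.5.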
# Cruzain inh noDet: qHTS Assay for Promiscuous and Specific Inhibitors of Cruzain (without detergent) | 200,000 tested, 2.3% active | Cruzipain (Trypanosoma cruzi), P25779 | Potency, µM, for the others: max response, negative = inhibition, most hits filed as inhibitors | purified cruzain, Z-FR-AMC fluorescence, no detergent; active means well fitted curve in the direction sought with a large enough effect; inconclusive means small, poorly fitted or top-dose-only effect, or another doubt; inactive means no such curve, though single readings can be large; an effect the other way counts as inactive or inconclusive;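 further: plate controls were enzyme without inhibitor for no effect and buffer without enzyme for full effect; nearly all actives have a fitted effect of over 40% in size; top concentration of the series not given in the record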
#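 Purified cruzain at 1.5 nM, pre-incubated 15 min with compound at room temperature in 100 mM sodium acetate pH 5.5, 5 mM DTT, 0.00005% Triton X-100. Reaction started with 2 uM Z-FR-AMC; AMC fluorescence increase over 60 s gives rate.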
# RE007 growth inh: qHTS Assay for Inhibitors of the HIV-1 protein Vpr; S. pombe RE007 Vpr strain, BacTiter-Glo ATP luminescence, 24 h; control for the full effect not named in the record; Potency, µM (doses to about 92.2 µM), without a hit: at the highest dose activity change, negative = less growth; 360,000 tested, 0.21% active; AID 651644, 2012; active = well fitted falling curve with a large enough effect; inconclusive = small, poorly fitted or top-dose-only effect; inactive = no such curve, though single readings can be large or run the other way;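 further: on the % scale 0 is the no-effect control and ±100 the full control effect; nearly all actives have a fitted effect of over 50% in size; the assay follows cell death caused by Vpr and the record does not say whether a fall means rescue or toxicity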
#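 Fission yeast RE007 carrying one integrated HIV-1 vpr copy, seeded at OD 0.01 in PMG+AL medium with 23 nL pinned compound. Grown 24 h at 30 degrees; viability read by BacTiter-Glo luminescence after 5 min.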
# Marburg entry inh: qHTS for inhibitors of binding or entry into cells for Marburg Virus | Marburg virus pseudotyped entry inhibition, cell reporter; control for the full effect not named in the record; about a third of the inactives were read at about 46 µM | Potency, µM (titrated, usually from 37.8 µM), inactives show at the top dose activity change, negative = inhibition, actives largely listed as inhibitors | 300,000 tested, 1.8% active; active = well fitted inhibition curve with a large enough effect; inconclusive = small, poorly fitted or top-dose-only effect, or effect the other way; inactive = flat fitted curve, though single readings scatter; tested in HEK293 cells; about a fifth of its hits are not listed in these tables; further: on the % scale 0 is the no-effect control and ±100 the full control effect; luciferase read-out
# Starred values were filed as active, the others as inactive; u = inconclusive; x = not tested or not shown; [ ] = remark or other dose. Unless noted, the call rests on the fitted dose curve; in most records, active means well fitted rising curve with a large enough effect; inconclusive means small, poorly fitted or top-dose-only effect; inactive means no such curve, though single readings can be large or run the other way. Potency means the concentration at half of the fitted maximal effect.
Compound	RE007 growth inh	Cruzain inh noDet	NS1 inh	Lassa entry inh	Marburg entry inh	Cruzain inh Det	2A StopGo	SARS PLpro yeast
COc1ccc(S(=O)(=O)CC2(O)CCN(C(=O)CC(C)C)CC2)cc1	-12%	x	x	-11%	u	x	-21%	1%
Cc1ccc(NC(=O)CCS(=O)(=O)c2ccc(Br)s2)cc1	-12%	x	3%	0%	-5%[46.1 µM]	x	4%	-3%
CC(C)N(Cc1nc(-c2ccccc2)no1)C(=O)CN(C)S(=O)(=O)c1ccccc1	4%	24%	-43%	-16%	1%	6.0%	0%	6%
Cn1c(O)c(C(C#N)=C2N=c3ccccc3=N2)c2ccccc21	-4%	-5%	-6%	2%	u	-0.9%	6%	6%
O=C(CCn1nc(-c2ccccc2)ccc1=O)N1CCCC1	-10%	1%	4%	u	15%	10%	20%	8%
COC(=O)c1ccc(NC(=O)CNS(=O)(=O)c2cccs2)cc1	-18%	-5%	-5%	u	6%	-2.0%	21%	10%
Cc1ccc(CNc2nc(Cl)c(C#N)s2)cc1	-10%	x	1%	18%[46.1 µM]	16%[46.1 µM]	x	18%	1%
COc1cc(NC(=O)CCCc2nnc3n(C)c(=O)c4sccc4n23)cc(OC)c1OC	x	-4%	x	0%[46.1 µM]	x	1.2%	-1%	x
Cc1cccc(-n2nc3c([n+]2[O-])CCc2nonc2-3)c1C	-15%	-5%	14%	5%	u	-0.7%	0%	-16%
Oc1c(C(c2ccc(Cl)cc2)N2CCOCC2)sc2nc(-c3ccco3)nn12 (configuration not stated)	x	u	x	7%[46.1 µM]	x	-6.9%	-4%	x
CCOC(=O)N1CCN(C(=O)CCn2c(=S)[nH]c3ccccc3c2=O)CC1	1%	x	-9%	x	x	x	-2%	4%
O=C(COC(=O)c1ccc([N+](=O)[O-])o1)NC1CCCc2ccccc21 (configuration not stated)	-11%	x	x	u	12%	x	-8%	13%
CC(/C=N\N1CCN(c2ccc(Cl)cc2)CC1)=C\c1ccccc1	1%	7.9µM*	8%	18%	u	-6.3%	-22%	0%
CN(C)C(=O)c1c([N+](=O)[O-])ncn1C	-9%	0%	7%	-3%	u	-2.3%	-21%	-3%
O=C(Cn1cnc2c(cnn2-c2ccc(F)cc2)c1=O)N1CCCc2ccccc21	-21%	-12%	-13%	-25%	10%	-4.3%	u	-9%
COc1ccc(CN(CC(=O)NC2CCCC2)C(=O)c2ccc(-c3ccccc3)[nH]2)cc1	1%	x	x	x	u	x	0%	-12%
CCOc1c(N2CCOCC2)c(=O)c1=O	15%	x	-2%	-5%	0%[46.1 µM]	x	1%	3%
COc1cccc(N2CCN(c3ncnc4c3c(-c3ccccc3)cn4-c3ccc(C)cc3)CC2)c1	x	2%	x	27%[46.1 µM]	x	4.6%	-2%	x
COc1cc(NC(=O)CCc2c(C)nn(-c3ccc4nncn4n3)c2C)cc(OC)c1OC	x	-8%	x	4%[46.1 µM]	x	1.1%	-16%	x
CCCCC(=O)Nc1ccc2c(c1)nc1n2CCSC1	2%	-15%	8.9µM*	1%	-24%	3.4%	30%[activator]	-12%
CCOC(=O)c1c(S(=O)(=O)NCC(=O)Nc2ccc(F)cc2C)c(C)n(C)c1C	x	2%	x	-9%[46.1 µM]	x	2.5%	-7%	x
CCOC(=O)c1ccc(NC(=O)c2nn(C)c3c2COc2ccccc2-3)cc1	x	0%	x	u	u	-1.8%	-4%	x
CCS(=O)(=O)N1Cc2ccccc2CC1C(=O)OCC(=O)N(C(C)C)C(C)C (configuration not stated)	6%	x	x	-16%[46.1 µM]	-3%[46.1 µM]	x	1%	1%
COc1ccc(OC)c(C(=O)NC(CC(N)=O)c2ccc(NCCN3CCCCC3)c([N+](=O)[O-])c2)c1 (configuration not stated)	-6%	x	-6%	x	x	x	-2%	-7%
O=C(NCCO)c1ccccc1O	11%	-1%	u	0%	2%	-6.8%	-18%	3%
Cc1nc(N2CCCCC2)c2c(-c3cccs3)csc2n1	-29%	x	x	-5%	27%	x	u	-4%
CCn1c(=O)c([N+](=O)[O-])c(N2CCSCC2)c2ccccc21	26%	x	0%	-1%	u	x	18µM*	0%
Cc1ccc(-c2csc3nnc(SCC(=O)Nc4cccc(C)n4)n23)cc1	12%	-13%	9%	10%	u	-11%	-26%	-2%
CCOC(=O)N1CCN(C(=O)NC2CCCCC2)CC1	6%	-3%	-8%	-2%	u	-2.3%	4%	0%
COc1ccc(-c2nn3c(-c4cccc(C)c4)nnc3s2)cc1OC	4%	x	-83%	-30%[14.3 µM]	u	x	-19%	x

# Entries shown so far containing a Cl atom, in the order listed:
Compound	RE007 growth inh	Cruzain inh noDet	NS1 inh	Lassa entry inh	Marburg entry inh	Cruzain inh Det	2A StopGo	SARS PLpro yeast
Cc1ccc(CNc2nc(Cl)c(C#N)s2)cc1	-10%	x	1%	18%[46.1 µM]	16%[46.1 µM]	x	18%	1%
Oc1c(C(c2ccc(Cl)cc2)N2CCOCC2)sc2nc(-c3ccco3)nn12 (configuration not stated)	x	u	x	7%[46.1 µM]	x	-6.9%	-4%	x
CC(/C=N\N1CCN(c2ccc(Cl)cc2)CC1)=C\c1ccccc1	1%	7.9µM*	8%	18%	u	-6.3%	-22%	0%

# Molecules above containing a cyano group, in the order listed:
Compound	RE007 growth inh	Cruzain inh noDet	NS1 inh	Lassa entry inh	Marburg entry inh	Cruzain inh Det	2A StopGo	SARS PLpro yeast
Cn1c(O)c(C(C#N)=C2N=c3ccccc3=N2)c2ccccc21	-4%	-5%	-6%	2%	u	-0.9%	6%	6%
Cc1ccc(CNc2nc(Cl)c(C#N)s2)cc1	-10%	x	1%	18%[46.1 µM]	16%[46.1 µM]	x	18%	1%

# Profiles, quoted from the list:
# COc1ccc(OC)c(C(=O)NC(CC(N)=O)c2ccc(NCCN3CCCCC3)c([N+](=O)[O-])c2)c1 (configuration not stated) as listed: RE007 growth inh = -6%; Cruzain inh noDet = x; NS1 inh = -6%; Lassa entry inh = x; Marburg entry inh = x; Cruzain inh Det = x; 2A StopGo = -2%; SARS PLpro yeast = -7%
# Cc1cccc(-n2nc3c([n+]2[O-])CCc2nonc2-3)c1C as listed: RE007 growth inh = -15%; Cruzain inh noDet = -5%; NS1 inh = 14%; Lassa entry inh = 5%; Marburg entry inh = u; Cruzain inh Det = -0.7%; 2A StopGo = 0%; SARS PLpro yeast = -16%

# Back to the main list, repeating the 2 entries before the break.
Compound	RE007 growth inh	Cruzain inh noDet	NS1 inh	Lassa entry inh	Marburg entry inh	Cruzain inh Det	2A StopGo	SARS PLpro yeast
CCOC(=O)N1CCN(C(=O)NC2CCCCC2)CC1	6%	-3%	-8%	-2%	u	-2.3%	4%	0%
COc1ccc(-c2nn3c(-c4cccc(C)c4)nnc3s2)cc1OC	4%	x	-83%	-30%[14.3 µM]	u	x	-19%	x
CCN1CCN(C(=O)C(N)Cc2ccccc2)CC1 (configuration not stated)	17%	x	13%	x	x	x	0%	-1%
Nc1cc(C(F)(F)F)ccc1-n1cccc1	6%	x	7%	x	x	x	9%	0%
Cc1ccc(C(=O)NCc2cccs2)cc1S(=O)(=O)N1CCCCC1	-4%	-2%	3%	14%	u	1.6%	x	1%
Cc1nnc(SCC(=O)OC2CC(C)CCC2C(C)C)[nH]c1=O (configuration not stated)	-2%	-6%	8%	1%	16%	2.8%	5%	1%
Cc1cccc(N(CC(=O)NC2CCCCC2)C(=O)CCCC(=O)Nc2ccccn2)c1C	0%	x	0%	-11%	-26%[46.1 µM]	x	65%[activator]	0%
O=S(=O)(NCc1cccnc1)c1ccc2ccccc2c1	5%	x	0%	-6%[46.1 µM]	-19%[46.1 µM]	x	22%	2%
Cc1ccc2c(c1)C(=O)C(=O)N2CCCOc1ccccc1C	30%	x	4%	x	x	x	7%	1%
CN(C)C(C(=O)Nc1cc(Cl)cc(Cl)c1)c1ccccc1 (configuration not stated)	6%	x	x	-4%	4%[46.1 µM]	x	-21%	0%
CCc1cccc(CC)c1NC(=O)COn1nnc2ccc(C(F)(F)F)cc21	19%	-4%	-1%	-5%	u	-2.0%	-29%	-4%
Cc1cccc2sc(NC(=O)[C@H](C)N3C(=O)C4CC=CCC4C3=O)nc12 (some centres not stated)	18%	x	-1%	9%	-1%	x	-17%	0%
O=C1c2cccnc2C(O)N1Cc1cccs1 (configuration not stated)	22%	8%	3%	10%[14.3 µM]	u	1.9%	-12%	17%
CCOC(=O)Cc1csc(NC(=O)CCN2C(=O)c3ccccc3C2=O)n1	2%	0%	u	15%	7%	-1.1%	x	-2%
Oc1ccc(Br)cc1/C=N/N1CCN(Cc2ccccc2)CC1	u	-7%	-34%	-2%	u	-5.8%	-2%	-3%
CC(C)(C)c1ccc(C2C3=C(CCCC3=O)NC3=C2C(=O)c2ccccc23)cc1 (configuration not stated)	12%	-2%	u	x	x	-0.9%	14%	0%
Cc1cc2c(c(C)nn2-c2ccccc2)c(=O)o1	-1%	2%	-6%	-14%	-8%	2.7%	-5%	1%
COc1ccc(C(=O)CSc2nc(C)cc(=O)[nH]2)cc1	-6%	0%	6%	-2%	22%	1.4%	28%	1%
COC(=O)c1ccc2cc(OC)cc([N+](=O)[O-])c2n1	-9%	x	x	5%	u	x	28%	x
COc1ccc(NC(=O)Nc2cccc(C(=O)N3CCOCC3)c2)cc1OC	-15%	0%	13%	-10%	-2%	4.5%	0%	3%
CN(CC(=O)Nc1ccc(F)cc1)C(=O)COC(=O)COc1ccc(C#N)cc1	6%	x	x	7%	u	x	-25%	3%
N#CC1(C#N)C(c2ccccc2)OC23CCCCC2C1(C#N)C(=N)O3 (configuration not stated)	3%	-5%	1%	-3%	4%	-2.9%	-18%	0%

# Outcome played no part in choosing rows; any-hit rate near 4.7%.
